# Bioassay records as filed in PubChem BioAssay.
# HSD17B inhib: inhibitors of human HSD17B10 dehydrogenase | recombinant HSD17B10, NADH fluorescence kinetic; many of its hits are not listed in these tables | hit rate 7.6% among 75,000 | Potency, µM (highest dose often 57.1 µM), for inactives: at the highest dose activity change, negative = inhibition, usual class: inhibitors; active means well fitted inhibition curve with a large enough effect; inconclusive means small, poorly fitted or top-dose-only effect; inactive means no such curve, though single readings can be large or run the other way;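 further: the protocol describes HADH2 (HSD17B10) and not the HSD17B4 of the title; nearly all actives have a fitted effect of over 70% in size; most hits overshoot -100% by far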
#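 Activity followed as NADH fluorescence increase (ex 360, em 450 nm) every 30 seconds for 4 min, using final 90 uM beta-hydroxybutyryl CoA and 1 mM NAD+. Recombinant His-tagged enzyme, 20 nM, pH 9.0 Tris buffer, 15 min compound preincubation.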
# Active calls of the source: *; ? = inconclusive; [ ] = remark or other dose. On the % scale 0 is the no-effect control and ±100 the full control effect; potency means the concentration at half of the fitted maximal effect.
SMILES,HSD17B inhib
Oc1c(Br)cc(CN(Cc2cc(Br)c(O)c(Br)c2)C2CCCCC2)cc1Br,-12%[11.4 µM]
O=S(=O)(Nc1ccccn1)c1ccc(C2CCCCC2)cc1,?
COCCCNC(=O)c1cn(C)c(=O)c2cc(OC)c(OC)cc12,-22%
CC(C)Sc1nc(-c2cccs2)nc2c1c(=O)n(C)c(=O)n2C,?
CCOC(=O)C1CCN(C(=O)Cc2c(C(=O)O)n(C)c3ccccc23)CC1,-6%
COc1ccc2[nH]c(=O)c(CN(Cc3nnnn3CCc3ccccc3)CC3CCCO3)cc2c1 (stereo not drawn),25µM*
c1ccc(CNc2ncncc2-c2ccc3c(c2)OCO3)cc1,?
COC(=O)N1CCC[C@@]2(CCN(C(=O)Nc3ccc(OC)cc3)C2)C1,0%
CCOCCCNC(=O)C1CCCN(S(=O)(=O)CC)C1 (stereo not drawn),-2%
O=C(CCc1nc(-c2ccc(Cl)cc2)no1)OCc1ccc(Br)cc1,8%
Cc1ccc(C(=O)OCc2cc3ccccc3[nH]c2=O)cc1,3%
CCOC(=O)c1c(C)[nH]c(C(=O)COC(=O)C2CC(=O)N(Cc3ccccc3)C2)c1C (stereo not drawn),1%
O=C1Nc2ccccc2C1=Nc1ccc(S(=O)(=O)Nc2nccs2)cc1,-3%[11.4 µM]
COC(=O)c1cc(S(=O)(=O)NC2CCN(Cc3ccccc3)CC2)cn1C,-3%
FC(F)(F)c1cc(CO[C@H]2CCCN[C@H]2c2ccccc2)cc(C(F)(F)F)c1,-13%
Clc1ccc2c(c1)c1ccccc1n2CN1CCOCC1,-1%
O=C(O)CSc1ccccc1C(=O)O,5%[11.4 µM]
C=CCNC(=O)CNS(=O)(=O)c1ccc(F)cc1,-17%
COc1ncc2nc(C)c(=O)n(Cc3cccs3)c2n1,-8%
Cc1cccc(Br)c1,3%
COc1ccc(N(C(=O)Cn2nnc3ccccc32)C(C(=O)NCc2ccco2)c2ccc(C)o2)cc1 (stereo not drawn),-7%
Cn1c(C(=O)NCc2cccs2)cc2c(=O)n(C)c3ccccc3c21,?
COc1ccc(-n2cnnc2SCc2ncc(-c3ccccc3)o2)cc1,-19%
CCOc1ccc(Cc2nnc(N)s2)cc1OCC,9%
CCCS(=O)(=O)N1CCC(C(=O)NCCCN(CC)c2cccc(C)c2)CC1,2%
SMILES,HSD17B inhib
Cc1cc(NC(=O)c2cc(S(=O)(=O)N3CCCCC3)ccc2C)n(-c2ccccn2)n1,8%
CCOC(=O)N1CCC(N2Cc3cccc(C(=O)N4CCN(C5CCCCC5)CC4)c3C2=O)CC1,5%
Cc1n[nH]c(=S)n(/N=C/c2ccccn2)c1=O,-3%
Nn1c(SCC(=O)Nc2ccc(Oc3ccccc3)cc2)nnc1C1CC1,-10%
NC(=O)c1cccc2c(=O)oc3ccccc3c12,26%
CCOC(=O)C(C(C)=O)c1c(Br)c(O)c(O)c2c(C(=O)c3ccc(C)cc3)coc12 (stereo not drawn),13µM*
Cc1ccc(CNC(=O)Cn2ccc3ccccc3c2=O)o1,-16%
Cc1nc2sc3c(c2c2nc(-c4ccco4)nn12)CCCC3,-5%
COc1ccccc1CN1CC[C@@]2(CCCN(C(=O)c3cccn3C)C2)C1,-2%
O=C(NC1CCCC1)C1CCCN(S(=O)(=O)c2ccc(-n3cnnn3)cc2)C1 (stereo not drawn),-2%
CCOc1ncccc1C(=O)OCc1ccc(C(=O)OC)o1,-1%
COC(=O)C1(CC(C)C)C=C2C(=C(C(C)C)C(=O)C2C)CN1 (stereo not drawn),-4%
Cc1onc(-c2ccccc2)c1C(=O)Nc1nc(-c2ccc(F)c(F)c2)cs1,25µM*
Cc1ccc2nc3nc4ccc[nH]c4cc3c2c1,3%[11.4 µM]
CSc1nc2ccccc2n1CC(=O)Nc1c(C)n(C)n(-c2ccccc2)c1=O,-1%
COc1ccccc1-n1c(SCC(=O)N2CCOCC2)nc(O)c(Cc2ccccc2)c1=O,7%
O=C(NCCCN1CCN(c2cccc(Cl)c2)CC1)C1CCC(=O)N1Cc1ccccc1Cl (stereo not drawn),-3%
CCOC(=O)/C=C1\SCC(=O)N1Cc1ccc(Br)cc1,2%
COC(=O)NC(c1ccccc1)C(C(=O)OC)C(=O)OC (stereo not drawn),-13%[11.4 µM]
CCCCn1nnnc1SCC(=O)Nc1ccc2c(c1)OCCO2,4%
c1ccc(CNCCN2CCNCC2)nc1,8%
COCCSc1ccccc1C(=O)N1CCCC1,-9%
Cc1c(Cl)cccc1NC(=O)CN1C(=O)CSc2ncccc21,8%
COc1ccc(C[C@H](O)CN2CCOCC2)cc1,6%[11.4 µM]
CCN(C(=O)c1ccccc1Cl)c1ccccc1,1%
SMILES,HSD17B inhib
O=C(Nc1ccccc1O)c1cc(S(=O)(=O)N2CCOCC2)ccc1Cl,2%
O=C(NC1=NCCS1)c1cc(-c2ccccc2)nn1-c1ccccc1,4%
Cc1ccc(CN2C(=O)CCC2C(=O)NC2CC2)cc1 (stereo not drawn),-3%
COc1cc(NS(=O)(=O)c2ccc(C)cc2C)cc(OC)c1OC,5%
CS(=O)(=O)N1CCN(c2nc3ccccc3s2)CC1,9%
COCCNc1nc(-c2ccoc2)nc2ccccc12,-20%
Cc1ccc(S(=O)(=O)NCC(C)NS(=O)(=O)c2ccc(C)cc2)cc1 (stereo not drawn),4%
Cc1cccc2c1N(CC(=O)OC(C)C)C(=O)C2=O,-10%
COCCn1c(SCc2ccc(C(=O)OC)o2)nc2ccccc2c1=O,-16%
COC(=O)c1ccc(OCC2c3cc(OC)c(OC)cc3CCN2C(=O)C2CC2)cc1 (stereo not drawn),3%
Cc1ccccc1-n1nc2c(c1NC(=O)c1cc3ccccc3oc1=O)CS(=O)(=O)C2,2%
CCOc1ccccc1N1CCN(S(=O)(=O)c2ccc(F)c(F)c2)CC1,0%
COc1ccc(N(C)C(=O)CCS(=O)(=O)c2cccc3nonc23)c(OC)c1,5%
CCCCN(CC)C(=O)CSc1cc(=O)n(C)c2ccccc12,-15%
O=C(CSC1=NCCS1)N1CCc2ccccc21,8%
COc1cc2[nH]c(=S)nc(NCC3CCCO3)c2cc1OC (stereo not drawn),-14%
O=C(CC1Nc2ccccc2NC1=O)NCc1cccnc1 (stereo not drawn),32µM*
CCS(=O)(=O)N1CCCC(C(=O)NCCN2CCC(Cc3ccccc3)CC2)C1 (stereo not drawn),8%
CCOC(=O)CSc1nnc(-c2ccco2)n1-c1ccc(C)cc1,-4%
Nc1nnc(SCC(=O)NCc2ccc3c(c2)OCO3)s1,0%
CSc1nnc(-c2ccccc2Cl)n1N,5%
COc1cccc(C2=NOC(C(=O)N3CCN(C(=O)c4ccco4)CC3)C2)c1 (stereo not drawn),1%
Cc1ccc(NC(=O)COC(=O)C2=COCCO2)cc1,4%
O=C(CN1CCOCC1)Nc1ccc(NC(=O)CN2CCOCC2)c(Cl)c1,13%
C(=C\CSc1ncn[nH]1)/CSc1ncn[nH]1,7%

# Arranged by SMILES length (lowest first): 16 of the compounds above.
SMILES,HSD17B inhib
CSc1nnc(-c2ccccc2Cl)n1N,5%
COCCNc1nc(-c2ccoc2)nc2ccccc12,-20%
C(=C\CSc1ncn[nH]1)/CSc1ncn[nH]1,7%
O=C(CC1Nc2ccccc2NC1=O)NCc1cccnc1 (stereo not drawn),32µM*
CS(=O)(=O)N1CCN(c2nc3ccccc3s2)CC1,9%
Nc1nnc(SCC(=O)NCc2ccc3c(c2)OCO3)s1,0%
COc1cc2[nH]c(=S)nc(NCC3CCCO3)c2cc1OC (stereo not drawn),-14%
CCCCN(CC)C(=O)CSc1cc(=O)n(C)c2ccccc12,-15%
COc1cc(NS(=O)(=O)c2ccc(C)cc2C)cc(OC)c1OC,5%
O=C(NC1=NCCS1)c1cc(-c2ccccc2)nn1-c1ccccc1,4%
O=C(CN1CCOCC1)Nc1ccc(NC(=O)CN2CCOCC2)c(Cl)c1,13%
Cc1ccc(S(=O)(=O)NCC(C)NS(=O)(=O)c2ccc(C)cc2)cc1 (stereo not drawn),4%
CCS(=O)(=O)N1CCCC(C(=O)NCCN2CCC(Cc3ccccc3)CC2)C1 (stereo not drawn),8%
COc1ccc(N(C)C(=O)CCS(=O)(=O)c2cccc3nonc23)c(OC)c1,5%
COC(=O)c1ccc(OCC2c3cc(OC)c(OC)cc3CCN2C(=O)C2CC2)cc1 (stereo not drawn),3%
Cc1ccccc1-n1nc2c(c1NC(=O)c1cc3ccccc3oc1=O)CS(=O)(=O)C2,2%

# Additional results follow.
SMILES,HSD17B inhib
CN(c1ccc(C(=O)NCc2ccc3c(c2)OCO3)cc1)S(C)(=O)=O,4%
Cn1c(CN2CCOCC2)c(C#N)c2ccccc21,?
O=C(CSc1oc(-c2ccccc2)nc1S(=O)(=O)c1ccc(F)cc1)NCC1CCCO1 (stereo not drawn),-13%
C(=N\n1cnnc1SCc1ccccc1)/c1ccco1,?
COc1ccc(CC(CC(=O)O)C(=O)Nc2ccccc2)cc1 (stereo not drawn),21%
C=CCOC(=O)C(C(C)=O)C(NC(=O)OC)c1cccs1 (stereo not drawn),4%[11.4 µM]
CCNc1nc(NC(C)(C)C)nc(N(C#N)CC)n1,-5%
CCCCSc1nnc(-c2cc(Br)ccc2N)c(=O)[nH]1,2%
O=C(OCc1nnc(-c2ccccc2)o1)c1ccc2c(c1)OCO2,-6%
CNc1ncncc1-c1ccccc1CN(C)C,-3%
O=[N+]([O-])c1ccc(Cl)c(CNc2ncnc3c2ncn3[C@@H]2CCCCO2)c1,-2%[11.4 µM]
COc1ccc(/C=N/n2cnnc2)cc1COc1ccccn1,0%
OC(CN1CCN(c2ccccc2)CC1)c1c[nH]c2ccccc12 (stereo not drawn),1%
CC(NC(=O)c1csc2ccccc12)C1CCCO1 (stereo not drawn),-1%
CCC/C=C(\CCC)C(NC(=O)Cc1ccccc1)c1ccc(C(=O)OC)cc1 (stereo not drawn),4%
O=C(c1c(O)c2ccc(Cl)cc2[nH]c1=O)C1CC1,-19%
Cc1ccc(S(=O)(=O)N2CCN(C(=O)CSc3nnc(-c4ccco4)o3)CC2)cc1,-5%
COc1ccc(O)c(-c2c(-c3ccc(Cl)cc3)n[nH]c2C)c1,32µM*
O=C(c1nnc(Cc2ccc(Cl)cc2)o1)N1CCc2ccccc2C1,-8%
COc1ccc(Cl)cc1NC(=O)c1cnc2n(c1=O)CCS2,10µM*
CCOc1ccc2cc(C#N)c(SCC(=O)N3CCCC3)nc2c1,13µM*
COc1cccc(Nc2ncc3nc(-c4cn(C)c5ccccc45)c(=O)n(CCC#N)c3n2)c1,0%
O=C(NCc1ccncc1)Nc1ccc(F)cc1,-8%
Cc1ccccc1NS(=O)(=O)c1ccc2[nH]cc(C(=O)NCCCN3CCOCC3)c(=O)c2c1,-79%
C#CC(C)OC(=O)C(C)NC(=O)c1ccccc1 (stereo not drawn),-6%
SMILES,HSD17B inhib
c1ccc(-c2noc(CN3CCN(c4ccccc4)CC3)n2)cc1,-2%
Cc1ccc(-c2nc(CS(=O)CC(=O)NCCN3CCOCC3)c(C)o2)cc1 (stereo not drawn),-10%
CC(C)CCNC(=O)C1CCN(c2nc3ccccc3o2)CC1,5%
O=C(Nc1cccnc1)c1ccccc1Oc1ccccc1,-7%
Cc1noc(C)c1COC(=O)c1cccc(S(=O)(=O)N2c3ccccc3CC2C)c1 (stereo not drawn),-6%
COc1cccc(S(=O)(=O)NCc2ccc(C(=O)NCc3ccco3)cc2)c1,?
O=C(NCCCO)c1nc2ccccc2s1,8%
CC(=O)c1cccc(NC(=O)c2cc(-n3cnnc3)ccc2Cl)c1,1%
O=C(CSc1ncccc1C(=O)O)c1ccccc1,2%
CCOc1cc(C(=O)N2CCc3cc(OC)c(OC)cc3C2)ccc1OC(F)F,-3%
Cc1ccc(OCc2nnc(SCC(=O)CC(=O)Nc3ccccc3)o2)cc1,0%
Cc1c(/C=N/n2cnnc2)c2ccccc2n1C,-4%
COc1ccc(C(CNC(=O)COc2ccccc2OC)N(C)C)cc1OC (stereo not drawn),4%
O=C(O)c1ccc(-c2ccco2)n1Cc1ccccc1,-11%
COc1ccc(N(CC(=O)Nc2nc3ccc(C)cc3s2)S(=O)(=O)c2c(C)nn(C)c2C)cc1,-4%
COc1ccc(CCNC(=O)C2=COCCO2)cc1,8%
CCCNC(=O)C1CCN(S(=O)(=O)c2ccc(Br)cc2)CC1,8%
c1ccc(N2CCN(c3ccccc3)C2c2cccs2)cc1,6%
CCOC(=O)c1cnc(NCc2ccccc2)nc1C,10%
O=C(c1ccccc1)c1ccc(OCC(O)CN2CCOCC2)cc1 (stereo not drawn),0%
COc1ccc(OC)c2[nH]c(=O)c(CCNS(=O)(=O)c3ccc(C)cc3)cc12,?
COc1ccc(CCNC(=O)CSc2nc(-c3ccco3)cc(C(F)(F)F)n2)cc1OC,-8%
CCC1(c2ccc(F)cc2)NC(=O)N(CC(=O)c2ccc[nH]2)C1=O (stereo not drawn),-2%
Cc1ccc(Cl)cc1N1CCN(C(=O)C2CCN(S(=O)(=O)c3cnc[nH]3)CC2)CC1,5%
Nc1nonc1-c1nc2ccccc2n1Cc1ccccc1,-2%
Cc1ccc(Cn2nnc3c(=O)[nH]c(C4CCN(S(=O)(=O)c5cc(C)ccc5C)CC4)nc32)cc1,?
CC(C)(C)NC(=O)C(c1ccco1)N(C(=O)Cn1nnc(-c2ccc(F)cc2)n1)c1ccccc1 (stereo not drawn),2%
OC/C=C/c1ccc(O)c(O)c1,6%

# The list is partial, so the mix of outcomes need not match the whole.
